Sfp inh: qHTS Assay for Inhibitors of Bacillus subtilis Sfp phosphopantetheinyl transferase (PPTase); Potency, µM, inactives show max response, negative = inhibition, actives largely listed as inhibitors; Biochemical Sfp PPTase activity, qHTS; AID 1490, 2009; 3.5% of 310,000 active; active = well fitted inhibition curve with a large enough effect; inconclusive = small, poorly fitted or top-dose-only effect, or another doubt; inactive = no such curve, though single readings can be large or run the other way;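 note: the enzyme is Sfp with the accession as filed and its product quenches rhodamine fluorescence; potency is the fitted concentration of half-maximal effect; 0% = enzyme reaction without inhibitor and -100% = no enzyme wells; top concentration of the series not given in the record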
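With Hepes-Na pH 7.6 buffer containing 10 mM MgCl2, Sfp (15 nM) modified BHQ-2-YbbR (12.5 uM) using rhodamine-CoA (5 uM). Two reads 30 minutes apart at 525/598 nm yielded each well's rate.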
gsp antag: qHTS for Antagonists of gsp, the Etiologic Mutation Responsible for Fibrous Dysplasia/McCune-Albright Syndrome: qHTS. gsp-mutant cells, cAMP HTRF, 30 min; control for the full effect not named in the record. Potency, µM (top dose mostly 76.9 µM), without a hit: at the top dose activity change, negative = inhibition, actives largely listed as inhibitors. 0.4% of 340,000 active. AID 624288, 2012; active = falling curve of any shape with a large fitted effect; inconclusive = falling curve, mostly with a smaller effect; inactive = flat or rising curve; cell line not stated here;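 note: intracellular cAMP measured with PDE inhibitor Ro 20-1724 present during compound exposure; potency is the fitted concentration of half-maximal effect; % is set by controls: 0 for no effect and ±100 for the full control effect; nearly all actives have a fitted effect of over 65% in size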
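Measurement of cellular cAMP by homogeneous time-resolved fluorescence following a 30 min compound exposure at 37C. The PDE inhibitor […] was present throughout; the assay buffer was DPBS with 0.05% BSA and 0.005% Tween 20.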
ClpP mod: qHTS Assay for Activators of ClpP; ATP-dependent Clp protease proteolytic subunit (Bacillus subtilis (strain 168)), P80244; purified B. subtilis ClpP, FRET peptide cleavage, 20 min; Potency, µM (doses to about 57.5 µM), for inactives: at the top dose activity change, negative = active; 1.9% of 340,000 active; AID 651965, 2013; active = well fitted falling curve with a large enough effect; inconclusive = small, poorly fitted or top-dose-only effect; inactive = no such curve, though single readings can be large or run the other way; note: potency is the fitted concentration of half-maximal effect; the source files actives as falling curves though it sought activators and does not explain the sign; nearly all actives have a fitted effect of over 65% in size; many hits overshoot -100%
Target sequence (P80244 whole entry, looked up): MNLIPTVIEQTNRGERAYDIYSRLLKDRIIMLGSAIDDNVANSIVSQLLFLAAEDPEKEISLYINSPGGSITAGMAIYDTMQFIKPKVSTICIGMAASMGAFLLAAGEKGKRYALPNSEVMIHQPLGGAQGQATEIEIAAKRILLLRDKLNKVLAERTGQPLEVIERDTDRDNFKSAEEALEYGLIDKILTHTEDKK
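ClpP 10 microg/mL final, pH 8 Tris/KCl buffer with BSA, glycerol, Tween-20; compound pinned in; FRET-FV substrate; RT 20 min; Ex320/Em430; ΔFRET vs ADEP 5.8 microM, DMSO, no enzyme.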
D2 PAM: Beta-Arrestin HTS for Positive Allosteric Modulators of the Human D2 Dopamine Receptor: Potentiators. D(2) dopamine receptor (Homo sapiens), P14416. DiscoveRx D2 beta-arrestin cells, luminescence, 90 min; 100% = 57 uM dopamine signal. potentiation, % (no concentration beside the values). 0.23% of 360,000 active. AID 624464, 2012; active = potentiation of 50% or more; inconclusive = 30% to 50%; inactive = 30% or less;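 note: compound concentration not given in the record; tested on top of an EC20 dose of dopamine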
Target sequence (P14416 whole entry, looked up): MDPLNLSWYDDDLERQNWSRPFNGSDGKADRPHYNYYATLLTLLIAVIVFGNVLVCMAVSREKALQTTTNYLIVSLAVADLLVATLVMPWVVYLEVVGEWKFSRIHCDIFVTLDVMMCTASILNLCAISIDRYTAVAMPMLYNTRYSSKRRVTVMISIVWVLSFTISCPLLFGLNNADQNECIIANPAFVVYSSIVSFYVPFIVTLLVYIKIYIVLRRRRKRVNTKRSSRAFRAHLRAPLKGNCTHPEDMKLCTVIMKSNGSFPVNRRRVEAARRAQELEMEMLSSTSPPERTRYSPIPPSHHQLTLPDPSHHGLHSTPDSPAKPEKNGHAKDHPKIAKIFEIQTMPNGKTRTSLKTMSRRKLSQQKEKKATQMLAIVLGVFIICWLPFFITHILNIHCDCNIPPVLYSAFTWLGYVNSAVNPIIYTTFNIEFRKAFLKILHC
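D2 cells co-treated with compound plus 50 nM dopamine (EC20) for 90 min at 37 deg C to detect potentiation. Beta-arrestin recruitment was read as enzyme-fragment luminescence after 1 h at ambient temperature. Full response was set by 57 uM dopamine.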
gsp ag: qHTS for Agonist of gsp, the Etiologic Mutation Responsible for Fibrous Dysplasia/McCune-Albright Syndrome: qHTS; gsp mutant cells, cAMP HTRF, 30 min; control for the full effect not named in the record; Potency, µM (highest dose often 76.9 µM), for inactives: at the top dose activation (cAMP increase), most hits filed as activators; 0.13% of 340,000 active; AID 624287, 2012; active = well fitted activation curve with a large enough effect; inconclusive = small, poorly fitted or top-dose-only effect, or another doubt; inactive = no such curve, though single readings can be large or run the other way; cell line not stated here;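 note: phosphodiesterase inhibitor Ro 20-1724 added with compounds to block cAMP breakdown; potency is the fitted concentration of half-maximal effect; nearly all actives have a fitted effect of over 60% in size; about a fifth of the inactives were tested at one dose only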
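Cells stably selected in G418 were plated at 2000/well, grown 16-24 hr, then given compounds in DMSO with the PDE inhibitor […] (300 uM solution added) for 30 min at 37C; cAMP was read by HTRF.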
Menin MLL FP FL: qHTS Assay for Inhibitors Targeting the Menin-MLL Interaction in MLL Related Leukemias: Competition With Fluorescein Labeled MLL-derived Peptide. FP activity change, % at 61.4 µM. Fluorescence polarization, fluorescein-MLL peptide displacement from menin. 290,000 tested, under 10 active; inconclusive = falling polarisation curve, or a change in total fluorescence; inactive = total fluorescence flat and polarisation flat or rising; no compound was filed as active; the % refers to the polarisation; negative = inhibition;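 note: % of control where 0% means no effect; inhibitors lower the polarisation; unlabelled MLL peptide was the positive control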
TRPV1 potentiator: HTS Assay for Compounds that Act as Potentiators of the Vanilloid Receptor 1 | potentiation, % at 8.33 µM | AID 540277, 2011 | TRPV1-expressing cells, Fluo-8 calcium influx, capsaicin EC20 potentiation; host cell line not named in the record; control for the full effect not named in the record | Transient receptor potential cation channel subfamily V member 1 (Homo sapiens), Q8NER1 | 0.02% of 320,000 active; active means potentiation above 80%; inconclusive means 30% to 80%; inactive means below 30%; note: 0% is about no effect
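Fluo-8 calcium influx in TRPV1-expressing cells, kinetic read (ex 480/em 520 nm). Compound added and read 3 min for agonist activity, followed by capsaicin at EC20 final and 2 min further read for enhancement.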
An asterisk follows results filed as active; ? = inconclusive; · = no result given; & = joins results of further samples; [ ] = another dose, or the depositor's remark.

SMILES	Sfp inh	gsp antag	ClpP mod	D2 PAM	gsp ag	Menin MLL FP FL	TRPV1 potentiator
Cc1cc(C)nc(-n2nc(C)cc2NC(=O)c2cc(=O)c3ccccc3o2)n1	20%	·	·	·	·	5.7	-1
CC1(C)C2CC=C(/C=N/NC(=O)c3ccc(Cl)cc3)C1C2 (stereo not given)	20%	?	0.7%	2	-20%	8.3	-6
CC1CCN(CC(=O)Nc2ccccc2-c2ccccc2)CC1	9%	3%	-1.1%	-26	-12%	-1.0	12
O=S1(=O)CCC(SCc2nc3sccn3c2Br)C1 (stereo not given)	11%	12%	-0.7%	-22	-6%	-9.6	-5
CCOC(=O)c1oc2ccc(S(=O)(=O)N3CCC(C)CC3)cc2c1C	10%	5%	-0.3%	-7	-2%	1.9	4
O=[N+]([O-])c1ccc2[nH]c(O)c(N=NC3CS(=O)(=O)CC3O)c2c1 (stereo not given)	5%	-14%	-0.9%	-10	11%	-1.1	5
C[n+]1ccccc1COc1ccc(C(C)(C)C)cc1	8%	7%	-1.6%	-12	5%	-0.6	4
CCOc1ccc(CN2CCC(Cc3ccccc3)CC2)cc1	1%	-3%	1.7%	-90	-25%	1.2	1
CCOc1ccc(NC(=O)N[C@@H](CCSC)C(=O)OC)cc1	22%	2%	-3.5%	0	-10%	5.3	8
Cc1ccccc1CNC(=O)Cc1ccccc1[N+](=O)[O-]	10%	3%	-4.0%	-12	1%	-0.5	-21
Cc1ccc(C(=O)NCC(=O)OCC(=O)N(CC(C)C)c2c(N)n(Cc3ccccc3)c(=O)[nH]c2=O)cc1	·	15%	-4.3%	-12	?	·	-11
CCCN1C2CCCC1CC(NC(=O)c1ccccc1F)C2 (stereo not given)	11%	8%	-2.1%	0	3%	5.3	22
CCOC(=O)c1ccc2nc(CCC(=O)N[C@H](C(=O)OC)C(C)C)c(=O)n(CC)c2c1	5%	-5%	·	-2	?	2.9	-11
CC(=O)Nc1ccc(C(=O)OCC(=O)NCc2ccccc2)cc1	4%	7%	·	1	3%[15.4 µM]	-2.5	-5
C=C(C)Cn1c(CN(C)Cc2ccccc2)nc2c1c(=O)n(C)c(=O)n2C	11%	-28%	-0.6%	-8	-30%	1.1	7
O=C(NCc1ccccc1)c1cccnc1Sc1ccccc1	5%	7%	-1.1%	-6	23%	-2.7	11
O=C(CSc1ncc(-c2ccccc2)[nH]1)Nc1ccccc1	13%	-9%	-3.5%&0.9%	-1	3%	4.5	3
COc1ccc(S(=O)(=O)Nc2ccc3c(c2)N(C(C)=O)CCC3)cc1OC	·	8%	-16%	-2	-60%[inhibitor]	·	8
COc1ccc(NC(=O)CSc2nnc(C(C)C)n2N)cc1	0%	7%	-6.9%	-14	20%	4.1	-2
CC(=O)N1CCN(CC(=O)Nc2ccccc2C(=O)NCc2ccc(C)cc2)CC1	15%	-5%	-16%	-1	16%[15.4 µM]	4.1	3
O=C(NCC1CCCO1)c1cc2c(s1)CCC2 (stereo not given)	7%	11%	-1.8%	-9	-78%[inhibitor]	0.6	-6
O=S(=O)(Nc1nc2ccccc2nc1N1CCN(c2ccccn2)CC1)c1ccc(Cl)cc1	6%	?	-7.0%	4	10%	?	8
Cc1cc(S(=O)(=O)NCc2ccc(S(N)(=O)=O)cc2)c(C)s1	17%	8%	3.9%	-2	-39%[inhibitor]	-0.4	?
CCN(CC)CCNc1nc(-n2nc(C)cc2C)nc2sc3c(c12)CC(C)(C)OC3	5%	5%	1.1%	-7	-9%[15.4 µM]	1.3	11
Cc1ccc(NC(=O)c2cc(NC(=O)c3ccccc3C(=O)O)ccc2N2CCCCC2)cc1	-26%	-12%	·	1	-7%	1.3	-1
COc1ccc2c(C#N)c3ccccn3c2c1	4%	-12%	-3.1%	70*	31%	?	0
COc1cccc(OC)c1OCCN1CCCC1	3%	-11%	-0.1%	-6	-11%	-8.6	-6
Cc1c(C(=O)c2ccccc2)c(=O)n(C)c(=O)n1C	16%	21%	·	-14	-5%[15.4 µM]	-5.3	-1
O=C(CN1C(=O)c2cccc3cccc(c23)C1=O)N1CCCCC1	-5%	-6%	14µM*	-16	18%	7.7	-3
COc1ccc(OC)c(-c2nn(-c3ccccc3)cc2C(=O)N2CCc3ccccc3C2)c1	·	?	-25%	-3	5%	·	1
CCOC(=O)c1c(NC(=O)CN2CCOCC2)sc(C(=O)NC)c1C	13%	-7%	-0.4%	-4	6%	1.3	-9
c1ccc(-c2cn(-c3ccccc3)c3ncnc(N4CCCCC4)c23)cc1	-13%	?	·	-3	-2%[15.4 µM]	1.6	-8
C=CCn1cnc2scc(-c3ccc(C)c(C)c3)c2c1=O	6%	-15%	1.4%	-8	11%	1.6	-2
Cc1cc(C)nc(SCc2nc(N)nc(-c3ccccc3O)n2)n1	6%	9%	-4.4%	7	16%	-2.2	-5
O=[N+]([O-])c1c(NCCO)cc(N2CCN(Cc3ccc4c(c3)OCO4)CC2)c2nonc12	-5%	-1%	-2.5%	-25	?	6.5	19
CCn1c(-c2ccccc2)csc1=Nc1ccc(O)cc1	-25%	-12%	-2.3%	17	-18%	-3.0	?
COC(=O)c1ccc2c(=O)n(NC(C)=O)c(=S)[nH]c2c1	4µM*	4%	-2.4%	-6	19%	-0.4	15
Cc1ccc(-n2ncc3c2CCCC3NC(=O)CSc2ccccn2)cc1C (stereo not given)	-2%	-25%	0.4%	-27	5%	-0.3	-6
O=C1C2CCc3ccccc3C2N1c1ccccc1 (stereo not given)	·	-4%	0.6%	1	0%	·	1
Cn1cccc1/C=N/NC(=O)c1cccnc1	-5%	-1%	-1.4%	1	-23%	-2.4	?
CC1(C)N=C(c2ccc(Cl)cc2)C(=O)N1	19%	-16%	-0.1%	-6	3%	3.1	-1
COc1cccc(/C(O)=C2/C(=O)C(=O)N(CCN3CCOCC3)C2c2cccs2)c1 (stereo not given)	3%	0%	-4.2%	-4	-7%	1.6	5
CCCNC(=O)c1ccc(Cn2c(=S)[nH]c3c([nH]c4ccc(OC)cc43)c2=O)cc1	11%	-3%	-0.6%	-11	?	2.3	7
Cc1nn(CC(=O)NCc2cccnc2)c(=O)c2ccccc12	17%	5%	-3.0%	-1	-1%	1.5	-9
O=C(O)CCC(=O)N1N=C(c2cccs2)CC1c1cn(-c2ccccc2)nc1-c1ccccc1 (stereo not given)	-5%	?	14µM*	-6	-50%[inhibitor]	0.7	-5
COc1ccc(NC(=O)CCNC(=O)c2ccccc2Cl)cc1OC	5%	10%	1.4%	-5	24%	-8.2	1
COC(=O)c1ccccc1NC(=O)c1cccs1	-6%	6%	-1.2%	-9	19%	0.6	-7
O=S(=O)(c1ccc(SCCOc2ccccc2Cl)nc1)N1CCCC1	·	-8%	-1.3%	1	-53%[inhibitor]	·	6
CC1=C(C(=O)N2CCOCC2)C(c2cccc3ccccc23)NC(=S)N1 (stereo not given)	?	-2%	-0.8%	2	16%[15.4 µM]	2.5	9
COc1cc(S(=O)(=O)N2CCN(c3ccccc3F)CC2)ccc1Cl	4%	-2%	-0.9%	-3	?	4.5	-6

3 of the entries above in order of the gsp antag value, largest number first:
compound | gsp antag
CC1CCN(CC(=O)Nc2ccccc2-c2ccccc2)CC1 | 3%
COc1cc(S(=O)(=O)N2CCN(c3ccccc3F)CC2)ccc1Cl | -2%
O=[N+]([O-])c1ccc2[nH]c(O)c(N=NC3CS(=O)(=O)CC3O)c2c1 (stereo not given) | -14%

Continued.
SMILES	Sfp inh	gsp antag	ClpP mod	D2 PAM	gsp ag	Menin MLL FP FL	TRPV1 potentiator
CCOc1ccc(NC(=O)CN(C)S(=O)(=O)c2ccc(-c3ccc(=O)[nH]n3)s2)cc1	-12%	-16%	0.4%	-7	27%	·	-10
CCOC(=O)[C@@H]1[C@H]2COc3ccccc3[C@@H]2N2C(=O)N(c3ccccc3)C(=O)[C@@]12C	17%	9%	-2.1%	-43	·	-0.6	28
CCOC(=O)Cn1nc(NC(=O)c2ccc(C(=O)OC)cc2)cc1C	8%	-12%	4.1%	-19	3%[15.4 µM]	-2.3	1
CC(C)OC(=O)NCCOC(=O)Nc1ccc(Cl)cc1	-4%	5%	1.0%	-15	-20%	1.6	3
CC(C)n1c(NCc2c[nH]c3ccccc23)nc2ccccc21	4%	3%	-1.9%	-13	-6%[15.4 µM]	4.0	?
CCSc1nc(N)nc(-c2cccs2)c1C#N	?	-3%	-8.6%	-1	-10%	3.1	-8
COc1ccc(NC(=O)c2cc(-c3ccc(C)c(C)c3O)n[nH]2)cc1Cl	-6%	-21%	·	-1	11%	1.5	-9
COc1ccc(C(=O)NC(C)c2ccc(-n3ccnc3)cc2)c(OC)c1 (stereo not given)	·	3%	0.1%	-2	2%	·	·
COCCN(Cc1ccccc1)C(=O)c1cc(S(=O)(=O)N2CCCCCC2)ccc1OC	·	-7%	-2.0%	-16	-5%	·	-15
Cc1cccnc1NC(=O)Nc1ccc(Cl)cc1	-4%	2%	-5.0%	-8	-25%	-0.8	8
CCOc1ccc(S(=O)(=O)NC2CCCC2)cc1	10%	10%	1.8%	-7	?	·	23
CCn1c(N)cc(=O)[nH]c1=S	·	4%	0.7%	-24	19%	·	·
Fc1cccc(Cc2noc(CN3CCCN(C4Cc5ccccc5C4)CC3)n2)c1	3%	-1%	·	-17	5%	-1.9	12
COc1ccccc1NC(=O)c1sc2ncn(Cc3ccccc3C)c(=O)c2c1C	14%	2%	163%	-2	?	27	·
COCCn1c(SCCOc2ccccc2)nc2ccccc2c1=O	?	-34%	·	-4	4%[15.4 µM]	2.0	3
Cc1cccc(NC(=O)CSCC(=O)Nc2ccccc2N2CCCC2)c1	9%	-7%	-6.4%	-6	-78%[15.4 µM]	·	15
COc1cc(-c2nc(S(=O)(=O)c3ccccc3)c(N3CCOCC3)o2)cc(OC)c1OC	6%	12%	-5.8%	-6	?	3.7	-5
